Yeast UUG start = modulators of start codon recognition fidelity in yeast; S. cerevisiae UUG-firefly luciferase reporter, luminescence/redox ratio; activity score, % at 18.7 µM; 350,000 tested, 0.13% active; AID 602363;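 active means replicate mean at a twofold rise or more, about +100% in these data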;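 further: firefly luciferase made from a UUG start codon reports start codon fidelity; reporter light over untreated wells divided by growth signal over untreated wells; some hits fall short of that in this replicate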
Env fusion inh = HIV envelope-mediated fusion inhibition; HeLa-JRFL Env/CEM21 cell fusion, luciferase; inhibition, % at 12.3 µM; 360,000 tested, 1.1% active; AID 651610;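 active means mean replicate inhibition score of at least 50 and every replicate individually at or above 50; inconclusive means only one of the two criteria met; inactive means mean below 50 and not all replicates reaching 50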;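 further: 0% = plate neutral controls and 100% = maraviroc near 300 nM; one replicate is shown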
CSC inhib = blocks cancer stem cells; inhibition, % at 7.5 µM; cancer stem cell-like cells viability, luminescence; 300,000 tested, 1.1% active;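 active means mean at 75% or more and at least half the replicates too; inconclusive means mean and replicates disagree; tested in HMLE shEcad cells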;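 further: 0% = median of negative and 100% = median of positive control wells; the first replicate is given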
eIF4H inh = inhibitors of RNA binding by human eIF4H. eIF4H fluorescence polarization binding assay. Q15056. AID 2012. inhibition, % at 35 µM. 290,000 tested, 0.94% active;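 active means 50% or more with normal probe brightness, or confirmed in later tests; inconclusive means above 50% with abnormal brightness, or retests that disagree; inactive means below 50% or failed in later tests; about a fifth of its hits are not listed in these tables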;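 further: calls also rest on retests at 20 µM and on dose response follow-up; 0% = protein and probe with vehicle and 100% = probe without protein; strong numbers were not always called active; many hits fall short of the cut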
Rce1 inh = blocks yeast Ras-converting enzyme; yeast membranes, quenched prenylated peptide cleavage fluorescence; AID 2563; calls only; 290,000 tested, 0.27% active;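 active means fall in fluorescence gain of 50% or more versus controls, with final raw signal at or below 3038400; inconclusive means same 50% fall but final raw signal above 3038400; inactive means fall in fluorescence gain under 50%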;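 further: plate controls were neutral control wells for no effect and wells lacking membranes for full effect; tested at 10 µM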
Target sequence (Q03530 whole entry, looked up): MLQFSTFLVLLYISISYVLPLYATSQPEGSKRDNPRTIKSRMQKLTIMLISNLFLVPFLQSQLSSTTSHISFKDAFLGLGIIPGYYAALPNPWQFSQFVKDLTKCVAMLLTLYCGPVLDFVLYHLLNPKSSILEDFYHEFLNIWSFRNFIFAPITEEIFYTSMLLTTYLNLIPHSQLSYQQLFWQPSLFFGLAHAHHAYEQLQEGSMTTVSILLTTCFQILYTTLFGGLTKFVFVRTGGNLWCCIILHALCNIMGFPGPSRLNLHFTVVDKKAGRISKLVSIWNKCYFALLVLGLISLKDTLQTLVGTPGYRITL
PABP polyA inh = blocks human PABP binding to poly(A) RNA. P11940. fluorescence polarization. inhibition, % at 35 µM. 290,000 tested, 1% active;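 active means 50% or more with normal probe brightness, or confirmed in later tests; inconclusive means above 50% with abnormal brightness, or retests that disagree; inactive means below 50% or failed in later tests; about a fifth of its hits are not listed in these tables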;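 further: calls also rest on retests at 20 µM and on dose response follow-up; controls were probe without protein and protein plus probe with vehicle; some compounds called inactive have numbers as strong as hits; many hits fall short of the cut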
MT1-MMP act inh = inhibitors of human MT1-MMP activation; P50281; HT1080 RFP-PRO-GFP cells, GFP/RFP ratio fluorescence, overnight; percent of plate control window, DMSO zero; GFP/RFP ratio change, % at 20 µM; 360,000 tested, 0.061% active;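 active means GFP/RFP ratio change of at least 30% with cell ATP level not reduced by more than half and red fluorescence within 50% of control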; further: strong numbers were not always called active
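Material: RFP-PRO-GFP reporter HT1080 cells. Dosing: single-point 20 µM compound, 1% DMSO. Controls: DMSO and RFP-L50D-GFP cell wells. Timing: cells overnight before dosing, compound overnight, 37 °C, 5% CO2. Measure: GFP/RFP fluorescence ratio.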
MT1-MMP act inh RFP = also measured in MT1-MMP act inh; calls as there; RFP signal change, %; measured here: RFP expression control read;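 0 = vehicle wells; hits needed this value within 50% of zero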
Starred values were filed as active, the others as inactive; i = inactive; ? = inconclusive; · = not tested or not shown; & = joins results of further samples. This is a random part of the collection (roughly 2.9% active in at least one column).

No.	Molecule	Yeast UUG start	Env fusion inh	CSC inhib	eIF4H inh	Rce1 inh	PABP polyA inh	MT1-MMP act inh	MT1-MMP act inh RFP
1	CC(C)c1ccc(CC(=O)N2CCC2(C)C(=O)NCC(C)(C)C)cc1 (configuration not stated)	-8	-34	·	·	·	·	2	-2
2	COc1cc(NC(=O)CSc2ccc3c(c2)OCCO3)cc(OC)c1OC	-11	·	-5	-7	i	5	-1	-14
3	O=C1CC(C(=O)Nc2cccc3ccccc23)C2(CCCC2)O1 (configuration not stated)	-13	-4	-16	-5	i	-9	3	-3
4	O=C(NCCCCC(NC(=O)c1ccc([N+](=O)[O-])cc1)C(=O)O)c1ccc([N+](=O)[O-])cc1 (configuration not stated)	·	·	1	-1	i	8	3	3
5	O=C(CN1CCN(S(=O)(=O)/C=C/c2ccccc2)CC1)Nc1ccccc1N1CCOCC1	·	-8	1	-15	i	2	4	-3
6	CSc1cccc(N/C(=N/S(=O)(=O)c2ccccc2)NN)c1	-13	9	-5	-2	i	8	1	4
7	CC1CCC2(CC1)NC(=O)N(CC(=O)Nc1ccc(N3CCOCC3)cc1)C2=O (configuration not stated)	-1	4	-9	-19	i	-6	-1	0
8	CCCCOc1ccc(C(=O)NCCc2ccccc2)cc1	-6	-64	2	-10	i	11	-4	-1
9	CCOC(=O)C1=CN(Cc2cccc(F)c2)S(=O)(=O)N(CC)C1c1ccccc1 (configuration not stated)	36	17	·	·	·	·	-6	-9
10	N#C/C(=C\c1c[nH]c2ccccc12)C(N)=O	·	2	-11	5	i	9	-3	-2
11	Cc1cccnc1CN1CCN(C(=O)CCc2nnc(CCc3ccccc3)o2)CC1	-15	-19	·	0	i	-8	-4	1
12	CC1CCN(CCOc2ccccc2-c2ccccc2)CC1	·	-81	·	3	i	-14	-6	7
13	C/C(=N/NC(=O)c1ccc(Br)o1)c1cccc(NC(=O)c2ccc(F)cc2)c1	-6	-11	-5	-2	·	-4	5	2
14	COc1cccc(OC)c1C(=O)NCCSC1CCCCC1	-1	-11	1	-4	i	-17	0	3
15	CCc1nc2ccc(C(=O)NCCOc3ccc(OC)cc3)cn2c1N(CC)CCN(C)C	-4	7	·	·	·	·	-9	-2
16	Cc1c(Cl)cccc1NC(=O)CC1NCCNC1=O (configuration not stated)	-12	-98	-1	-9	i	-6	-3	11
17	COC(=O)C1=C(C)Nc2ncnn2C1c1ccccn1 (configuration not stated)	-8	-9	-5	1	i	-6	0	9
18	CN(C(=O)CN1C(=O)NC(C)(CCc2ccccc2)C1=O)c1ccccc1 (configuration not stated)	·	16	-6	·	i	·	0	1
19	O=[N+]([O-])c1ccc(O)c(/C=N/Nc2nn[nH]n2)c1	-11	12	-1	11	i	22	0	-8
20	CC(C)(C)SCCNC(=O)c1ccc(Cl)c(S(=O)(=O)N2CCOCC2)c1	-55	·	-10	·	i	·	-2	-8
21	COc1ccc(Cn2nnnc2CN2CCc3ccccc3C2)cc1	-4	22	-2	-9	i	2	0	4
22	COc1ccc(C(=O)N2CCCC(C)(C(=O)NS(=O)(=O)C3CC3)C2)c(OC)c1 (configuration not stated)	-5	0	·	·	·	·	0	6
23	O=C(CCNC(=O)c1ccco1)Nc1cccc(Br)c1	·	12	-4	2	i	2	-4	-11
24	CCc1nc(N2CCC3(CC2)OCCO3)c2nnn(Cc3ccccc3Cl)c2n1	-17	·	-9	10	i	10	-4	-10
25	COc1cc2c(cc1OC)-c1cc3ccc4c(c3c[n+]1CC2)OCO4	18	·	-26	?	i	6	-96	-2
26	CCS(=O)(=O)N1CCC(C(=O)Nc2cc([N+](=O)[O-])ccc2C)CC1	-16	16	·	5	i	-6	1	4
27	COc1ccc(C(=O)Nc2ccc(S(=O)(=O)Nc3nccc(C)n3)cc2)cc1	-11	7	-18	-8	i	8	0	-3
28	CCOC(=O)c1cnc(SCc2ccc(C(C)(C)C)cc2)nc1N	-17	32	59	3	i	-1	-3	-11
29	C[C@@H]1CN([C@@H](C)CO)C(=O)CCCn2cc(nn2)CO[C@H]1CN(C)S(=O)(=O)c1ccc2ccccc2c1	-29&11	-11	·	·	·	·	0	4
30	COc1ccc(NC(=O)c2cc(-c3ccccc3)on2)cc1OC	3	-57	0	6	i	1	3	5
31	COc1cccc2cccc(/C=N/n3cnnc3)c12	·	-28	0	-6	i	0	-2	0
32	Cc1cccc(C)c1NC(=O)C1(N(C(=O)c2ccccn2)c2ccc(O)cc2)CCCCC1	·	-19	5	-5	i	5	-1	5
33	CCOc1ccc(CCNC(=O)c2cccc(S(=O)(=O)N3CCN(C(C)=O)CC3)c2)cc1OCC	-15	·	-3	·	i	·	-2	-1
34	O=C(CSc1ncn[nH]1)Nc1ncc(C(F)(F)F)cc1Cl	·	-8	-3	0	i	1	-5	-2
35	Oc1ccc(-c2n[nH]c(C(F)(F)F)c2-c2ccccc2)c(O)c1	·	7	-15	-2	i	-5	·	·
36	COc1ccc(NS(=O)(=O)c2cccc(C(=O)N3CCN(c4ccccc4O)CC3)c2)cc1	·	i	-8	·	i	·	0	-8
37	COc1ccccc1-c1cc(C(=O)N2CCCC2)no1	-11	-77	-5	4	i	4	-2	-2
38	Cc1cccc(Oc2cc(N)cc([N+](=O)[O-])c2)c1	·	-10	-11	-4	i	-5	-3	-1
39	O=C(COC(=O)COc1ccc(Cl)cc1Br)NC1CC1	·	-1	-17	·	·	·	-1	2
40	COc1cc2c3nnc(-c4ccc(F)cc4)c-3cn(Cc3ccccc3F)c2cc1OC	·	6	·	?	·	4	-160	-7
41	CC(Oc1ccc(Br)cc1Br)C(=O)Nc1cccnc1 (configuration not stated)	-4	·	-12	0	i	-4	-1	-6
42	COCCn1c(-c2ccccc2Cl)nc2c(c(=O)c3ccccc3n2C)c1=O	·	-35	2	-1	i	15	-2	-4
43	O=C(CNC(=O)c1ccccn1)N=Nc1c(O)[nH]c2ccccc12	-9	-3	·	2	i	3	1	1
44	CC1CN(CC(O)COC(c2ccccc2)c2ccccc2)CC(C)O1 (configuration not stated)	-5	·	-12	2	i	16	1	5
45	CN1CC=C2C(C#N)=C(N)C(C#N)(C#N)C(CCc3ccccc3)C2C1 (configuration not stated)	4	·	0	?	i	2	-68	3
46	CC(=O)Oc1ccc(/C=N/NS(=O)(=O)c2ccccc2)cc1	-15	12	-3	-2	i	12	-8	-7
47	CN(C)CCn1cnc2c(c1=N)C(c1ccccc1)c1ccc3ccccc3c1O2 (configuration not stated)	3	0	14	3	i	-6	-3	-8
48	O=S(=O)(c1ccc(Cl)cc1)N1CCN(C(=S)NCC2CCCO2)CC1 (configuration not stated)	-5	18	-9	-1	i	35	1	-3
49	COC(=O)[C@H](Cc1ccccc1)N1C/C=C\COc2c(Cl)cc(Cl)cc2S1(=O)=O	-6	?	·	·	·	·	-2	-3
50	COCCn1c(SCC(=O)NC(=O)NC(C)(C)C)nc2ccccc21	-6	123*	-6	-5	i	5	4	0
51	CCCCN(CCCC)Cc1cc(=O)oc2ccc3ccccc3c12	10	18	·	·	·	·	1	-3
52	CCn1c(C(C#N)/C(=N\S(=O)(=O)c2cccs2)c2ccccc2)nc2ccccc21 (configuration not stated)	-12	-73	7	12	i	-3	-12	-2
53	O=C(COC(=O)CC1CC2CCC1C2)NCc1ccc(Cl)cc1 (configuration not stated)	-3	-7	·	·	·	·	2	3
54	Cc1ccc(C)c2sc(NC(=O)c3ccc(N4CCCCC4)c([N+](=O)[O-])c3)nc12	-17	·	·	-2	i	1	-43	-30
55	COc1cc([N+](=O)[O-])cc(/C=N/NC(=O)Cn2nc(C)cc2C)c1O	·	14	11	-6	i	-4	2	4
56	Cc1cccc(NC(=O)c2c(O)c3ccccc3n(C)c2=O)c1	-10	-24	-12	-9	i	-2	-2	3
57	Cc1cccc(C(CC(=O)NCc2ccco2)c2ccccc2)c1O (configuration not stated)	·	3	-2	-5	i	2	-3	-1
58	CN(CC(=O)NCc1ccco1)CC(=O)Nc1c(Cl)cccc1Cl	11	·	-2	·	·	·	-1	4
59	Cc1nnsc1S(=O)(=O)Cc1ccccc1Cl	-17	0	-11	1	i	15	-2	1
60	O=C(OCC(=O)N1CCCCCC1)c1ccc(Cl)c(S(=O)(=O)N2CCCC2)c1	-9	-11	-5	13	i	-4	0	-8

Arranged by length of the SMILES (lowest first): 3 of the compounds above.
No.	Molecule	Yeast UUG start	Env fusion inh	CSC inhib	eIF4H inh	Rce1 inh	PABP polyA inh	MT1-MMP act inh	MT1-MMP act inh RFP
50	COCCn1c(SCC(=O)NC(=O)NC(C)(C)C)nc2ccccc21	-6	123*	-6	-5	i	5	4	0
60	O=C(OCC(=O)N1CCCCCC1)c1ccc(Cl)c(S(=O)(=O)N2CCCC2)c1	-9	-11	-5	13	i	-4	0	-8
49	COC(=O)[C@H](Cc1ccccc1)N1C/C=C\COc2c(Cl)cc(Cl)cc2S1(=O)=O	-6	?	·	·	·	·	-2	-3

Additional compounds follow:
No.	Molecule	Yeast UUG start	Env fusion inh	CSC inhib	eIF4H inh	Rce1 inh	PABP polyA inh	MT1-MMP act inh	MT1-MMP act inh RFP
61	O=C(CSc1nnc(NC(=O)c2ccc(F)cc2F)s1)NC1CC1	-13	3	11	-20	·	-1	2	4
62	O=C(O)c1ccc2c(c1)C(c1ccccc1)OC2=O (configuration not stated)	-20	-37	-11	12	i	16	-3	0
63	Cc1noc(C)c1NC(=O)Nc1ccc2c(c1)C(=O)N([C@H](C)CO)C[C@H](C)[C@H](CN(C)C)O2	-14&7	24	-11	·	·	·	-2	0
64	O=C(CSc1cn[nH]n1)Nc1cccc(C(=O)O)c1	-13	0	-5	12	i	7	-1	4
65	CC1(C)CC(=O)C=C(NCc2cccnc2)C1	-7	-2	4	2	i	10	-1	5
66	O=c1[nH]c(CSc2nnnn2-c2ccccc2)nc2ccccc12	·	6	-6	-2	i	-2	7	6
67	COc1ccc(S(=O)(=O)Nc2ccc(C)c(S(=O)(=O)N3CCOCC3)c2)cc1[N+](=O)[O-]	-8	16	·	·	·	·	5	-1
68	CCCN1CCN(S(=O)(=O)c2ccc3c(c2)NC(=O)C(C)C(=O)N3)CC1 (configuration not stated)	-14	3	7	30	i	1	2	7
69	Cc1ccc(S(=O)(=O)N2C(=O)CCC2C(=O)Nn2cnnc2)cc1 (configuration not stated)	0	-49	-3	8	i	4	1	4
70	CC(Oc1ccccc1)C(=O)NC1CC(C)(C)NC(C)(C)C1 (configuration not stated)	-13	-7	0	-5	i	-6	-2	1
71	CC(C)NC(=O)NC(=O)CSc1nnc(-c2ccccc2F)n1N	·	1	·	-6	i	14	1	2

Bioassay records deposited in PubChem by several laboratories.
